High-throughput results: PubChem BioAssay, National Center for Advancing Translational Sciences (NCATS)
miR-21 reporter – raises the signal of a miR-21 reporter. 340,000 tested, under 10 active. AID 2288. HeLa miR-21 FLuc reporter, luciferase, 48 h. Potency, µM (top dose mostly 38.3 µM), without a hit: at the highest dose reporter change, positive = more light; active = well fitted rising curve with a large enough effect; inconclusive = small, poorly fitted or top-dose-only effect; inactive = no such curve, though single readings can be large or run the other way;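 further: % of control where 0% means no effect; miR-21 action dims this reporter so a rising signal means less miR-21 action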
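Compounds were titrated across several concentrations (up to approximately 40 uM) and incubated 48 hours with HeLa miR-21-FLuc reporter cells (miR-21 target sequence downstream of FLuc, endogenous miR-21). Readout was firefly luciferase luminescence after lytic detection reagent.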
Rango complex inh – Rango-importin beta binding inhibition. Q14974. 340,000 tested, 0.031% active. Rango CFP/YFP FRET sensor + importin beta, 45 min. Potency, µM (series often up to 92.2 µM), without a hit: at the top dose inhibition of complex formation; active = rising FRET ratio curve, often small or poorly fitted; inconclusive = mostly compound fluorescence or quenching in the first reads; inactive = flat curves in all reads;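 further: potency means the concentration at half of the fitted maximal effect; 0% = DMSO wells and 100% = buffer wells lacking importin beta; nearly all actives have a fitted effect of over 15% in size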
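FRET biosensor Rango (snurportin 1 IBB between N-terminal EYFP and C-terminal Cerulean), 50 nM in PBS/1 mM DTT/0.02% Tween-20/0.1% BSA, preincubated 5 min RT with compound; 0.125 microM importin beta added, 45 min RT, CFP/YFP FRET ratio read.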
GLA inh pH 4.5 – inhibitors of human alpha-galactosidase A at pH 4.5 | P06280 | 230,000 tested, under 10 active | purified enzyme, 4-MU-alpha-Gal fluorescence, pH 4.5 | activity change, negative = inhibition, % at 105 µM; inconclusive = small, poorly fitted or top-dose-only inhibition, or a rising curve; inactive = flat fitted curve, though single readings scatter; no compound was filed as active;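 further: 0% = full activity with enzyme and -100% = basal without enzyme; dose as in the result columns while the protocol names 77 µM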
Target sequence (P06280 whole entry, looked up): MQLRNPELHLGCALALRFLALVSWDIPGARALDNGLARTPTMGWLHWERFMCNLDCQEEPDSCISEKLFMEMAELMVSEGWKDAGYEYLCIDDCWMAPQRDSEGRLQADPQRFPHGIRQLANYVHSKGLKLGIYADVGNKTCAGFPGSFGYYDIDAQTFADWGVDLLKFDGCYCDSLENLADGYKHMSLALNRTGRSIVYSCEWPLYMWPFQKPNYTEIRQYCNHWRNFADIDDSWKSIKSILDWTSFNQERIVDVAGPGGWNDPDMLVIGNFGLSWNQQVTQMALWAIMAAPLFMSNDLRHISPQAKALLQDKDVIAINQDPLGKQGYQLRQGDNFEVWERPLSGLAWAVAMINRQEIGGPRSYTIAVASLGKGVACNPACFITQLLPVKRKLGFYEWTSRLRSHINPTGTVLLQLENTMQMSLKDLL
Rango release inh – prevents RanGTP from dissociating the Rango-importin beta complex | AID 540253 | 340,000 tested, 0.071% active | Potency, µM (top dose mostly 46.1 µM), for the others: top-dose activity change, negative = inhibition | Biochemical FRET Rango-importin beta, RanGTP-induced dissociation; active means falling FRET ratio curve, often poorly fitted, with flat reads before Ran was added; inconclusive means other falling curves, or compound fluorescence or quenching; inactive means flat or rising ratio curve;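 further: potency means the concentration at half of the fitted maximal effect; % of control where 0% means no effect; nearly all actives have a fitted effect of over 45% in size; -100% = wells without RanGTP and RCC1; the record marks most hits as doubtful in a second field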
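Quantitative HTS using a FRET biosensor: 0.1 uM Rango, 0.25 uM importin beta, 0.6 uM Ran, 2 mM GTP, 0.2 uM RCC1 final, PBS with DTT, Tween-20 and BSA. Post-read taken 45 min after Ran addition.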
Active calls of the source: *; ? = inconclusive; · = no result given; & = joins results of further samples. These rows are one share of the data; the hit share may differ from the screen's.

structure,miR-21 reporter,Rango complex inh,GLA inh pH 4.5,Rango release inh
Cn1c(C(=O)NCCc2ccccc2)cc(=O)n(C)c1=O,4%,0.1%,-1,16%
CCCCCN(C(=O)CCC(=O)OCC(=O)NCc1ccc(OC)cc1)c1c(N)n(CCCC)c(=O)[nH]c1=O,-3%,-1.1%,·,3%
CCN(CC)C(=O)c1sc2nc(Cc3ccccc3)[nH]c(=O)c2c1C,0%,1.3%,4,9%
O=c1cc[nH]c2c1ccc1c(=O)cc[nH]c12,0%,-0.5%,·,-12%
O=C(CSCc1ccccc1F)NCc1ccccc1,-54%,0.1%,-3,10%
COCc1ccc(CN2CCc3c([nH]c4ccccc34)C2C(C)(C)C)o1 (stereo unspecified),-50%,?,5,1%
O=c1[nH]c(CSc2ncnc3sccc23)nc2cc(C(F)(F)F)ccc12,0%,?,-1,-8%
Cc1cc(C)cc(NC(=O)c2ccccc2CC[N+](=O)[O-])c1,0%,-0.8%,-20,18%
Cc1ccc(C)c(CSc2nc3ccncc3n2CC(=O)Nc2ccc(C)c(C)c2)c1,0%,·,-19,·
O=C(O)Cc1ccc(NC(=O)c2ccc(Cl)c(Cl)c2)cc1,17%,-0.4%,7,-5%
CC(/C=N/N1CCN(c2ccccn2)CC1)=C\c1ccccc1,-30%,-1.7%,-1,9%
CC1CCCCC1NC(=O)C1CCN(c2c3c(nc4ncnn24)CCC3)CC1 (stereo unspecified),7%,-2.0%,·,-3%
Cc1ccc(S(=O)(=O)NCC(=O)OCC(=O)NCc2ccco2)cc1,·,-1.6%,·,11%
COc1ccc(C)cc1-n1c(SCC(=O)Nc2cc(C)on2)nc2sc(C)c(C)c2c1=O,-3%,0.1%,-12,12%
CCOc1ncccc1C(=O)Nc1ccc(S(=O)(=O)Nc2cc(C)nc(C)n2)cc1,·,-1.3%,·,-12%
Cc1cc(=O)[nH]c2c1c(C)nn2-c1ccccc1,-5%,0.2%,6,-9%
COc1cc(/C=C(\C#N)c2nc3ccc(C)cc3[nH]2)c([N+](=O)[O-])cc1OC,9%,6.1%,-9,-26%
CC(=O)CCS(=O)(=O)c1ccc(C)c(C)c1,13%,0.0%,-2,3%
CC(C)N1C(=O)CCN(C=O)c2ccccc21,0%,6.5%,4,-7%
CCOc1ccccc1/C=C/c1onc(C)c1S(=O)(=O)N1CCC(C(=O)NC(C)C)CC1,-3%,?,·,10%
COc1ccc(OC)c(N(C(=O)c2snc(C(N)=O)c2N)C(C(=O)NCC2CCCO2)c2ccc3ncccc3c2)c1 (stereo unspecified),-8%,1.7%,·,15%
COCCNc1nc2nonc2nc1N(C)Cc1cccc2cnccc12,-7%,4.1%,10,4%
CCCCNC(=O)COC(=O)c1ccc(NS(=O)(=O)c2ccc3c(c2)OCCO3)cc1,-6%,4.4%,2,3%
C=CCn1c(=NC(=O)c2cc(-c3cccs3)nc3ccccc23)sc2cc(S(N)(=O)=O)ccc21,2%,?,3,-16%
COc1ccc(F)cc1-c1nc(N)nc(N)n1,·,-1.4%,·,8%
Cn1c(=O)cc(-c2ccccc2)c2ccccc21,-11%,3.8%,-10,1%
CCOC(=O)C(C)(C)Oc1ccc(Cl)cc1,·,0.1%,-8&1&-1,24%
Cn1c(=O)oc2cc(S(=O)(=O)CCC(=O)N3CCN(c4ccccc4)CC3)ccc21,0%&1%,-0.4%,·,-1%
CSc1ccccc1C(=O)Nc1cc([N+](=O)[O-])ccc1C,-3%,-0.7%,4,0%
COc1ccc(O)c(/C=N/N2CCOCC2)c1,-22%,2.3%,-3,-4%
Cc1cc(C)c(C)c(OCC(=O)N2CCCCCC2)c1,-12%,-3.7%,-2,-8%
C=CCNC(=S)NNc1ncnc2sc3c(c12)CC(C)(C)OC3,1%,-4.8%,10,0%
Cc1c(C(=O)N2CCN(C3CCS(=O)(=O)C3)CC2)oc2ccc(Cl)cc12 (stereo unspecified),·,-1.4%,·,-3%
O=C(/C=C/c1c(F)cccc1Cl)Nc1nc2ccccc2[nH]1,-70%,0.1%,-3,26%
CCOC(=O)C1=C(N)Oc2cc(C)n(C)c(=O)c2C1c1ccncc1 (stereo unspecified),-15%,0.7%,17,5%
CN(CC(=O)NC1CC(C)(C)NC(C)(C)C1)S(=O)(=O)c1ccc(Br)cc1,0%,3.8%,·,-3%
NS(=O)(=O)c1ccc(O)c(NC(=O)c2ccc([N+](=O)[O-])cc2)c1,-2%,-1.1%,4,2%
Cc1ccc(SCc2c(C(=O)N/N=C/c3ccccc3)nnn2-c2nonc2N)cc1,3%,2.2%,-1,-10%
Cc1ccc[n+](CC(=O)Nc2cc(C(F)(F)F)ccc2Cl)c1,-7%,5.2%,0,-5%
COc1ccc(S(=O)(=O)N(C)c2ccc(C(=O)N3CCN(c4ccccc4)CC3)cc2)cc1OC,17%,-0.1%,·,-1%
Cn1nccc1C(=O)Nc1nnc(C2CC2)s1,-15%,0.8%,·,-8%
COc1ccc(NC(=O)CSc2nnnn2C)cc1S(=O)(=O)N1CCCCC1,·,0.2%,·,9%
CSC1=C(C#N)C(c2ccc(Cl)cc2)C2=C(CC(C)(C)CC2=O)N1 (stereo unspecified),-3%,-1.6%,-4,2%
CCN1CCN(CCNC(=O)c2cc(Cl)c(NC(=O)C3=C(C)OCCS3)cc2OC)CC1,-2%,-0.3%,·,0%
C/C(=N\NS(C)(=O)=O)c1ccc(C)cc1,-2%,2.3%,-4,5%
CC(NC(=O)CCC(=O)c1ccccc1)c1ccc(F)cc1 (stereo unspecified),·,0.6%,·,1%
COc1ccc(N=C2NC(=O)/C(=C\c3ccco3)S2)cc1,-28%,?,10,5%
CC(=O)c1c(OC(=O)c2ccc(C)cc2)c2ccccc2n1C,-2%,-3.2%,-7,-15%
COc1ccc(Cc2noc(CN3CCN(C4CCc5ccccc5C4)CC3)n2)cc1OC (stereo unspecified),9%,2.3%,7,-7%
Cc1cc(NC(=O)NC(=O)c2ccccc2NC(=O)C(C)N)ccc1Oc1ncc(Br)cn1 (stereo unspecified),·,4.8%,·,-1%
CCC1CCc2sc(C(=O)N3CCCN(C)CC3)cc2C1 (stereo unspecified),-16%,-0.4%,·,14%
Cc1ccc(CN2CCN(CCCc3ccccc3)CC2CCO)cc1 (stereo unspecified),-8%,-0.1%,-11,10%
CC(=O)Nc1ccc(NC(=O)C(C)OC(=O)c2ccc(-n3cnnn3)cc2)cc1 (stereo unspecified),·,-5.0%,·,-12%
Fc1ccc(Nc2ncnc3sc4c(c23)CCC4)cc1,-17%,-1.8%,2,1%
COC(=O)c1ccc(COc2ccccc2/C=N/Nc2cccc(C(=O)O)c2)cc1,-28%,4.4%,-5,0%
Cc1ncoc1C(=O)N1CCCC(C(=O)c2ccc(-c3ccccc3)cc2)C1 (stereo unspecified),0%,-3.1%,1,-2%
Cc1ccc(S(=O)(=O)N2CCCCC2)cc1NC(=O)Cn1ccc(C(F)(F)F)n1,5%,-1.8%,6,-2%
CC(=O)c1ccc(OCC(O)CNCc2ccc3c(c2)OCO3)cc1 (stereo unspecified),3%,2.4%,5,3%
Cc1cc(C)nc(SCc2nc3ccccc3n2C)n1,-60%,-1.4%,0,2%
Cc1cc(C=O)c(C)n1-c1ccc(N2CCCC2)c([N+](=O)[O-])c1,-3%,-1.0%,1,13%

Carrying on.
structure,miR-21 reporter,Rango complex inh,GLA inh pH 4.5,Rango release inh
CC1(C)C2CCC1(CS(=O)(=O)NCc1ccc(Cl)cc1Cl)C(=O)C2 (stereo unspecified),14%,2.7%,·,1%
CC(=O)N1CCN(C(=O)c2cc(S(=O)(=O)NCc3ccccc3)ccc2C)CC1,-2%,4.3%,·,-14%
O=C(NC(=S)NC(CO)c1ccccc1)c1ccc(F)cc1 (stereo unspecified),-11%,0.0%,·,0%
Cc1onc(-c2c(F)cccc2Cl)c1C(=O)NC(=S)NC1CCSC1=O (stereo unspecified),0%,-0.9%,-1,-4%
CCN1CCCC1CNC(=O)c1ccc(N2CCOCC2)c(NS(=O)(=O)c2ccc(OC)cc2)c1 (stereo unspecified),1%,-0.7%,0,19%
COc1cnn(Cc2ccccc2)c(=O)c1SCc1ccccc1,-15%,3.1%,-8,40%
CCOC(=O)c1nnn(-c2nonc2OC)c1-c1ccccc1,8%,0.4%,-4,8%
COc1ccc(CN2CCN(C(=O)c3ccc(S(=O)(=O)NCc4ccco4)cc3)CC2)cc1F,·,5.6%,·,1%
CNC(=O)c1c(NC(=O)c2ccc(S(=O)(=O)N3CCCCC3C)cc2)sc2c1CCN(C)C2 (stereo unspecified),-2%,?,·,?
CC1CCCCN1C(=O)CSc1nc(N)cc(=O)[nH]1 (stereo unspecified),1%,-4.2%,0,1%
COc1ccc(C(=O)n2nc(-c3ccco3)nc2N)cc1,-5%,0.9%,-7,0%
COC(=O)Cn1c(CN2CCN(c3ccccc3F)CC2)nc2c1c(=O)n(C)c(=O)n2C,·,-2.7%,·,1%
CC(C)Oc1ccc(CNCCC2(C(C)C)CCOC(C)(C)C2)cc1 (stereo unspecified),-2%,-2.2%,11,0%
CCN(CC)CCn1c2c(c(SCC(=O)Nc3nc4ccccc4s3)nc1=O)CCC2,·,-2.2%,·,17%
COc1ccc(NC(=O)C(=O)c2cn(CC(=O)N3CCCC3)c3ccccc23)c(OC)c1,-4%,-4.3%,·,4%
CCCc1[nH][nH]c(=O)c1C(c1cccc(Cl)c1)C(C#N)C#N (stereo unspecified),0%,0.4%,-3,0%
Cn1/c(=N\NC(=O)C2CCCCC2)sc2ccccc21,-20%,0.4%,-1,-10%
COc1ccc(C2CC(=O)Oc3cc4c(cc32)OCO4)cc1 (stereo unspecified),·,3.1%,-4,-2%
CN(C)C(CNC(=O)c1cccc(NS(=O)(=O)c2ccc(Br)cc2)c1)c1ccco1 (stereo unspecified),·,5.5%,·,-5%
COc1ccc(OCCN2C(=O)c3ccccc3C2=O)cc1,-35%,-2.4%,-4,-10%
COc1cccc(N2CCN(CC(=O)Nc3ccnn3C3CCCC3)CC2)c1,·,5.1%,·,23%
COc1ccc(OCc2cc(C(=O)NC(C)c3cnn(C)c3)no2)c(Cl)c1 (stereo unspecified),-47%,2.5%,·,-22%
O=S(=O)(Nc1cnc2ccccc2c1)N1CCCCCC1,1%,1.5%,7,-9%
O=C(NNS(=O)(=O)c1ccc2ccccc2c1)c1cccs1,-14%,0.4%,-12,8%
CS(=O)(=O)N(CC(=O)Nc1ccc(S(=O)(=O)N2CCOCC2)cc1)c1ccccc1Br,-2%,?,10,6%
CCOC(=O)N1CCN(S(=O)(=O)c2ccc(C(=O)N(CCN(C)C)c3nc4ccc(CC)cc4s3)cc2)CC1,-23%,0.5%,·,-4%
Cc1ccc(Nc2nc(N)nc(CN3CCN(Cc4ccccc4)CC3)n2)cc1Cl,26%,0.8%,-11,43%
Cc1cc(C)c2c(n1)nn1c(-n3ccnc3)cc(C)nc21,-1%,?,-6,-29%

Ordered by molecular weight (smallest number first): 4 of the compounds above
structure,miR-21 reporter,Rango complex inh,GLA inh pH 4.5,Rango release inh
COc1ccc(O)c(/C=N/N2CCOCC2)c1,-22%,2.3%,-3,-4%
CCOC(=O)C(C)(C)Oc1ccc(Cl)cc1,·,0.1%,-8&1&-1,24%
CCC1CCc2sc(C(=O)N3CCCN(C)CC3)cc2C1 (stereo unspecified),-16%,-0.4%,·,14%
CN(CC(=O)NC1CC(C)(C)NC(C)(C)C1)S(=O)(=O)c1ccc(Br)cc1,0%,3.8%,·,-3%
